# Rce1 inh: inhibitors of yeast Ras-converting enzyme; Q03530; yeast membranes, quenched prenylated peptide cleavage fluorescence; calls only; hit rate 0.27% among 290,000; AID 2563;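 active = fall in fluorescence gain of 50% or more versus controls, with final raw signal at or below 3038400; inconclusive = same 50% fall but final raw signal above 3038400; inactive = fall in fluorescence gain under 50%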;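 also: plate controls were neutral control wells for no effect and wells lacking membranes for full effect; tested at 10 µM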
# HIV Env fusion: HIV envelope-mediated fusion inhibition; HeLa-JRFL Env/CEM21 cell fusion, luciferase; inhibition, % at 12.3 µM; hit rate 1.1% among 360,000;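 active = mean replicate inhibition score of at least 50 and every replicate individually at or above 50; inconclusive = only one of the two criteria met; inactive = mean below 50 and not all replicates reaching 50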;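 also: 0% = plate neutral controls and 100% = maraviroc near 300 nM; one replicate is shown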
# PABP polyA inh: blocks human PABP binding to poly(A) RNA; inhibition, % at 35 µM; hit rate 1% among 290,000; fluorescence polarization;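 active = 50% or more with normal probe brightness, or confirmed in later tests; inconclusive = above 50% with abnormal brightness, or retests that disagree; inactive = below 50% or failed in later tests; about a fifth of its hits are not listed in these tables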;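 also: calls also rest on retests at 20 µM and on dose response follow-up; controls were probe without protein and protein plus probe with vehicle; some compounds called inactive have numbers as strong as hits; many hits fall short of the cut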
# Target sequence (P11940 whole entry, looked up): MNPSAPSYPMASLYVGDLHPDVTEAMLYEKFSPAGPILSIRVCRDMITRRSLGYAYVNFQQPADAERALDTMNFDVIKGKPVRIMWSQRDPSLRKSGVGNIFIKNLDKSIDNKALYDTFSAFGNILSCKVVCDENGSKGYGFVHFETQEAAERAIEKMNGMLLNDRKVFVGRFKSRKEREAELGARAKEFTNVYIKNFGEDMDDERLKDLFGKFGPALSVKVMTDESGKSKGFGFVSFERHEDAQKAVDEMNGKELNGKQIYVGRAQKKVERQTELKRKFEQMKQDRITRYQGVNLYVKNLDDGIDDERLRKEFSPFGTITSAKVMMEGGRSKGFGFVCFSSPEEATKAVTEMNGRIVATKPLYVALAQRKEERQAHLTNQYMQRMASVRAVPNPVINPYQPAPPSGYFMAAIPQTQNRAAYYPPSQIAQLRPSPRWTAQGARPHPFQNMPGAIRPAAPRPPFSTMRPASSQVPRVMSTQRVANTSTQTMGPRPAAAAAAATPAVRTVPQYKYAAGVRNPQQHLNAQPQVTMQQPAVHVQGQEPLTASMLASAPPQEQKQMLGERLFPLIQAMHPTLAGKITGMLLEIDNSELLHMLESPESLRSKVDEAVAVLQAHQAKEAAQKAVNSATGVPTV
# UUG fidelity: modulators of start codon recognition fidelity in yeast; S. cerevisiae UUG-firefly luciferase reporter, luminescence/redox ratio; activity score, % at 18.7 µM; hit rate 0.13% among 350,000; AID 602363;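 active = replicate mean at a twofold rise or more, about +100% in these data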;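 also: firefly luciferase made from a UUG start codon reports start codon fidelity; reporter light over untreated wells divided by growth signal over untreated wells; some hits fall short of that in this replicate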
# eIF4H FP inh: inhibitors of RNA binding by human eIF4H; inhibition, % at 35 µM; eIF4H fluorescence polarization binding assay; hit rate 0.94% among 290,000;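 active = 50% or more with normal probe brightness, or confirmed in later tests; inconclusive = above 50% with abnormal brightness, or retests that disagree; inactive = below 50% or failed in later tests; about a fifth of its hits are not listed in these tables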;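 also: calls also rest on retests at 20 µM and on dose response follow-up; 0% = protein and probe with vehicle and 100% = probe without protein; strong numbers were not always called active; many hits fall short of the cut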
# MT1-MMP act inh: inhibitors of human MT1-MMP activation; P50281; HT1080 RFP-PRO-GFP cells, GFP/RFP ratio fluorescence, overnight; percent of plate control window, DMSO zero; GFP/RFP ratio change, % at 20 µM; hit rate 0.061% among 360,000; AID 651647;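 active = GFP/RFP ratio change of at least 30% with cell ATP level not reduced by more than half and red fluorescence within 50% of control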; also: strong numbers were not always called active
#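 Test system: HT1080 RFP-PRO-GFP cells; Benchmarks: DMSO and RFP-L50D-GFP cell wells; Timing: cells overnight before dosing, compound overnight, 37 °C, 5% CO2; Compound: one 20 µM compound dose with 1% DMSO; Read-out: GFP/RFP fluorescence ratio.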
# CSC inhib: blocks cancer stem cells; inhibition, % at 7.5 µM; hit rate 1.1% among 300,000; cancer stem cell-like cells viability, luminescence;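 active = mean at 75% or more and at least half the replicates too; inconclusive = mean and replicates disagree; tested in HMLE shEcad cells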;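 also: 0% = median of negative and 100% = median of positive control wells; the first replicate is given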
# eIF4H FP inh retest: also measured in eIF4H FP inh; calls as there; inhibition, %; compound at 20 µM; confirmation average;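 mean of two retest wells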
# PABP polyA inh retest: further read-out of PABP polyA inh, marked with its call; inhibition, %; compound at 20 µM; confirmation repeats;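 mean of two retest wells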
# MT1-MMP act inh RFP: further read-out of MT1-MMP act inh, marked with its call; RFP signal change, %; measured here: RFP expression control read;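 0 = vehicle wells; hits needed this value within 50% of zero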
# * hit, by the source's call; i = inactive; ? = inconclusive; . = not tested or not shown; & = joins results of further samples; [ ] = another dose, or the depositor's remark.
# Start of the data: the first 7 records as a preview:
SMILES,Rce1 inh,HIV Env fusion,PABP polyA inh,UUG fidelity,eIF4H FP inh,MT1-MMP act inh,MT1-MMP act inh RFP,CSC inhib,others
O=c1ccc(-c2nc3ccccc3n2Cc2ccccc2Cl)c[nH]1,i,14,7,.,2,3,3,5,
Cc1sc(C(=O)NCc2cccnc2)c2nc(C)n(CC(=O)NCc3cccnc3)c(=O)c12,i,-12,-6,-19,-4,1,2,-8,
Cc1cc(C(=O)N/N=C/c2ccc(-c3ccccc3Cl)o2)n[nH]1,i,-18,2,-14,-17,5,-2,22,
COc1ccc(-c2c(C#N)c(N)nc3c2c(=O)n(C)c(=O)n3C)cc1,i,.,0,-17,4,3,2,-6,
COC(=O)CCCCCc1ccc(C(C)=O)s1,i,2,-17,-16,-8,-5,0,1,
CCN(C(=O)CN1CC(C)OC(C)C1)c1c(N)n(Cc2ccccc2)c(=O)[nH]c1=O (stereo unspecified),i,-21,-4,.,1,-4,-1,-11,
O=S(=O)(c1ccc(Br)cc1)N1CCN(c2ccccc2)CC1,i,6,2,-6,-10,-4,-1,-6,

# The listing, repeating the preview:
SMILES,Rce1 inh,HIV Env fusion,PABP polyA inh,UUG fidelity,eIF4H FP inh,MT1-MMP act inh,MT1-MMP act inh RFP,CSC inhib,others
O=c1ccc(-c2nc3ccccc3n2Cc2ccccc2Cl)c[nH]1,i,14,7,.,2,3,3,5,
Cc1sc(C(=O)NCc2cccnc2)c2nc(C)n(CC(=O)NCc3cccnc3)c(=O)c12,i,-12,-6,-19,-4,1,2,-8,
Cc1cc(C(=O)N/N=C/c2ccc(-c3ccccc3Cl)o2)n[nH]1,i,-18,2,-14,-17,5,-2,22,
COc1ccc(-c2c(C#N)c(N)nc3c2c(=O)n(C)c(=O)n3C)cc1,i,.,0,-17,4,3,2,-6,
COC(=O)CCCCCc1ccc(C(C)=O)s1,i,2,-17,-16,-8,-5,0,1,
CCN(C(=O)CN1CC(C)OC(C)C1)c1c(N)n(Cc2ccccc2)c(=O)[nH]c1=O (stereo unspecified),i,-21,-4,.,1,-4,-1,-11,
O=S(=O)(c1ccc(Br)cc1)N1CCN(c2ccccc2)CC1,i,6,2,-6,-10,-4,-1,-6,
COc1ccc(-c2cn[nH]c2N)c(OC)c1,i,81*,-4,4,-2,-7,-6,-6,
COc1ccc(CC(=O)Nc2ccc(-c3cn4ccccc4n3)cc2)cc1OC,i,.,27,-14,2,11,-9,0,
COc1ccc(-c2ccc(CCC(=O)O)n2Cc2ccco2)cc1,i,8,5,.,16,-14,-2,-8,
COC(=O)c1cccc(Nc2c3c(nc4ccccc24)CCC3)c1,i,9,-16,-16,-2,-9,-11,.,
COc1ccc2c(c1)oc(=O)c1cc(OC)ccc12,i,.,-5,6,39,-2,-1,7,
O=C(Nc1ccc(F)cc1F)c1cc2n(n1)C(C(F)(F)F)C1CCCCC1N2 (stereo unspecified),i,.,-2,-19,-2,4,7,53,
Cc1ccc(N2C(=S)NC3c4ccccc4OC2(C)C3C(=O)N(C)C)cc1 (stereo unspecified),i,20,8,-5,-2,0,3,-1,
CC(=O)COC(=O)CCc1nc2ccccc2[nH]c1=O,i,.,-5,-16,-2,-3,4,-8,
O=c1cnc(-c2ccc(Cl)cc2)cn1O,i,-44,-2,.,1,-4,0,0,
Cc1nn2c(C)nc3sc4c(c3c2nc1=O)CC(C)(C)OC4,i,-10,-3,-14,-4,2,5,-22,
COc1ccccc1CNS(=O)(=O)c1ccc(Br)s1,i,13,-4,1,-4,-2,-3,-5,
C=CCOc1ccc(CN(C)c2ccc(S(=O)(=O)N3CCN(C)CC3)cc2[N+](=O)[O-])cc1,.,.,.,-20,.,2,-3,17,
COc1cc(NC(=O)CSc2ccc(-c3cccnc3)nn2)cc(OC)c1,i,-8,15,5,-4,1,-4,7,

# Arranged by SMILES length (rising): some entries from above.
SMILES,Rce1 inh,HIV Env fusion,PABP polyA inh,UUG fidelity,eIF4H FP inh,MT1-MMP act inh,MT1-MMP act inh RFP,CSC inhib,others
O=c1cnc(-c2ccc(Cl)cc2)cn1O,i,-44,-2,.,1,-4,0,0,
COc1ccc(-c2cn[nH]c2N)c(OC)c1,i,81*,-4,4,-2,-7,-6,-6,
CC(=O)COC(=O)CCc1nc2ccccc2[nH]c1=O,i,.,-5,-16,-2,-3,4,-8,
COC(=O)c1cccc(Nc2c3c(nc4ccccc24)CCC3)c1,i,9,-16,-16,-2,-9,-11,.,
COc1ccc(CC(=O)Nc2ccc(-c3cn4ccccc4n3)cc2)cc1OC,i,.,27,-14,2,11,-9,0,
O=C(Nc1ccc(F)cc1F)c1cc2n(n1)C(C(F)(F)F)C1CCCCC1N2 (stereo unspecified),i,.,-2,-19,-2,4,7,53,
Cc1sc(C(=O)NCc2cccnc2)c2nc(C)n(CC(=O)NCc3cccnc3)c(=O)c12,i,-12,-6,-19,-4,1,2,-8,

# Continuation:
SMILES,Rce1 inh,HIV Env fusion,PABP polyA inh,UUG fidelity,eIF4H FP inh,MT1-MMP act inh,MT1-MMP act inh RFP,CSC inhib,others
CC(C)[N+]1(C)[C@@H]2CC[C@@H]1CC(OC(=O)C(CO)c1ccccc1)C2 (stereo partly specified),.,-22,.,-26,.,0,5,-17,
O=C1/C(=C/c2cccs2)NC(=S)N1C1CC1,i,-7,-5,-20,2,1,0,-6,
COc1cccc(OC)c1C(=O)NC(=S)Nc1ccc2oc(-c3ccncc3)nc2c1,i,11,-19,-14,1,7,-8,21,
CCCn1nc(NC(=O)C2CCCO2)c2cc3cc(C)ccc3nc21 (stereo unspecified),i,-79,-5,-6,-7,-1,-4,11,
CC(=O)c1c(C)[nH]c(C(=O)NC2CCSc3ccccc32)c1C (stereo unspecified),i,15,-2,-12,-2,-1,-9,-14,
O=C1NC(=S)S/C1=C\c1ccc2ccccc2c1,i,-29,-10,-15,16,-9,-7,64,
CSCC[C@H](NC(=O)NCc1ccccc1F)C(=O)O,i,.,2,-5,3,-1,1,13,
CCN1CCCC1CNC(=O)c1cc(N)ccc1OC (stereo unspecified),i,-8,.,1,.,0,2,-10,
O=C(COc1ccc(Br)cc1Cl)NC(=O)NCc1ccccc1,i,-1,-13,.,-2,4,2,-1,
COc1ccccc1CNC(=O)C(Cc1c[nH]c2ccccc12)NC(=O)OCc1ccccc1 (stereo unspecified),i,-5,-16,26,-7,-3,-7,3,
COc1cc(NC(=S)NCCO)c(OC)cc1Cl,i,14,-6,-17,4,-1,1,-15,
CC(C(=O)Nc1ccc2c(c1)OCCO2)N(C)Cc1c(F)cccc1Cl (stereo unspecified),i,13,-4,.,6,3,4,-10,
CC(=O)NC(CC(=O)Nc1cc(Cl)ccc1-n1cncn1)c1ccccc1 (stereo unspecified),i,1,.,-2,.,-1,2,2,
CC(C)C[C@H](NC(=O)NCc1ccccc1Cl)C(=O)O,i,-1,10,3,0,0,5,-14,
CCOC(=O)c1[nH]c(C)c(/C(O)=C2\C(=O)C(=O)N(CCN(C)C)C2c2ccc(C)o2)c1C (stereo unspecified),i,.,4,.,10,-5,-5,31,
Cc1cccc(N(CC(=O)NCCSc2ccccn2)S(=O)(=O)c2ccccc2)c1,i,4,82,-11,-7,2,5,11,eIF4H FP inh retest=-9;PABP polyA inh retest=2
O=C(c1cc(-c2cccc(Cl)c2)on1)N1CCN(c2ccc(F)cc2)CC1,i,6,12,-15,-3,3,4,5,
COc1cccc(C(=O)c2c(C)c(CCC#N)n3ccccc23)c1OC,i,6,12,.,?,3,4,-8,
Cc1noc(C)c1CCC(=O)NC1CCCN(Cc2ccc(CC(C)C)cc2)C1 (stereo unspecified),i,27,2,4,-8,4,-6,-1,
C[C@@H]1CN([C@@H](C)CO)C(=O)CCCn2nncc2CO[C@@H]1CN(C)C(=O)c1ccncc1,.,-23[16.7 µM],.,-11&-1&-17,.,4,6,.,
CCC(=O)OC1(C(=O)CCl)[C@@H](C)C[C@H]2[C@@H]3CCC4=CC(=O)C=C[C@]4(C)[C@@]3(F)[C@@H](O)C[C@@]21C (stereo partly specified),.,i,.,11,.,-2,-5,-3,
CSCCC(NS(=O)(=O)c1ccc2c(c1)OCCO2)C(=O)N(C)Cc1ccc(F)cc1 (stereo unspecified),i,9,.,-1,.,-2,2,-9,
CN(CC(=O)Nc1ccc(Cl)c(C(F)(F)F)c1)C(=O)/C=C/c1ccco1,i,6,0,.,4,15,-5,15,
CCCCN(C)S(=O)(=O)c1ccc(C(=O)Nc2nnc(-c3ccco3)o2)cc1,.,11,12,-27,10,-3,-3,27,
COc1cc(S(=O)(=O)N(Cc2ccc(C)cc2)C2CCCCC2)ccc1-n1cnnn1,.,?,-2,-9,-7,-17,-17,.,
CCOC(=O)C1=C(N)Oc2cc(C)oc(=O)c2C1c1cccnc1 (stereo unspecified),i,.,10,-5,4,1,6,-2,
CC(C)(C)NS(=O)(=O)c1cnc(Cl)c(Cl)c1,i,.,1,.,4,3,4,-12,
CCOc1ccc(CCNC(=O)CN2CCN(Cc3ccccc3C)C2=O)cc1OCC,i,.,-5,6,-5,2,1,-9,
CC(C)(C)CC(=O)NCCCCCCNC(=O)CC(C)(C)C,i,.,9,.,-5,1,0,-15,
CC(C)c1cc(NCCCN2CCOCC2)n2c(nc3ccccc32)c1C#N,i,17,-8,-19,7,1,-2,-2,
CCOCCCNC(=O)c1ccccc1SC,i,.,-4,-9,-4,0,3,-5,
CNc1nc(SCC(=O)Nc2ccc(Cl)c(Cl)c2)nc(N2CCOCC2)n1,i,-7,-13,-19,-10,1,-1,-4,
CN(C(=O)COC(=O)c1cc2ccccc2cc1O)c1ccccc1,.,7,.,0,.,2,-2,-2,
Fc1ccc(CSc2ncnc3nc[nH]c23)cc1,i,-2,11,1,-7,-5,1,19,
CC(=O)c1cccc(NC(=O)/C=C/c2ccc(S(=O)(=O)N3CCOCC3)cc2)c1,.,13,.,-1,.,11,-9,-23,
